Screening data: PubChem, Broad Institute
A1 apoptosis 2: A1 inhibition read as caspase activation. MEF A1-2A-BIM cells, caspase-Glo luminescence, 3 h; percent of clofoctol response, DMSO zero. caspase activation, % (concentration not given with the values). 24,000 tested, under 10 active. AID 2465; in the data active = caspase activation above about 5.9%;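 note: wells of about 30 µL received 50 nL stock; the first replicate is given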
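Evaluation: Caspase-3/7 activity from luminescence increase | Assay system: A1-2A-BIM mouse embryonic fibroblasts | Quantity: 2500 MEF cells/well | Medium: RPMI-1640 plus 10% FBS | Detection: Caspase-Glo 3/7 luminescence, 1 h at room temperature | Dosing: 50 nL compound per well, pinned | Timing: Cells settled overnight, compound exposure 3 h at 37 °C, 5% CO2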
* = called active by the depositor. Some of the compounds tested; rates above refer to the full screens.

SMILES | A1 apoptosis 2
COc1ccc(S(=O)(=O)N(C)C[C@H]2OCCCC[C@H](C)Oc3ccc(N(C)C)cc3C(=O)N([C@H](C)CO)C[C@@H]2C)cc1 | -0.7
C[C@@H]1CCCCO[C@H](CN(C)C(=O)c2ccncc2)[C@@H](C)CN([C@H](C)CO)C(=O)c2cc(NC(=O)c3ccncc3)ccc2O1 | -0.4
C[C@@H]1CN([C@H](C)CO)C(=O)c2cccc(NS(=O)(=O)c3ccc(Cl)cc3)c2O[C@H]1CN(C)S(=O)(=O)c1ccc(F)cc1 | 0.1
C[C@@H]1CN([C@H](C)CO)C(=O)Cc2cc(NC(=O)C3CCCCC3)ccc2O[C@H]1CN(C)Cc1ccc(-c2ccccc2)cc1 | 0.5
C[C@H](CO)N1C[C@H](C)[C@H](CN(C)C(=O)c2ccccc2)OCc2cn(nn2)CCCC1=O | 1.2
C[C@H]1CCCCO[C@@H](CN(C)Cc2ccc(C(=O)O)cc2)[C@@H](C)CN([C@@H](C)CO)C(=O)c2cc(NS(=O)(=O)c3ccccc3)ccc2O1 | 1.4
C[C@@H]1CN([C@@H](C)CO)C(=O)c2cc(NS(=O)(=O)c3ccc(Cl)cc3)ccc2O[C@@H](C)CCCCO[C@H]1CN(C)C | 0.1
COc1ccc(NC(=O)N(C)C[C@H]2OCCCC[C@H](C)Oc3ccc(NC(=O)Nc4ccc(F)cc4)cc3C(=O)N([C@@H](C)CO)C[C@@H]2C)cc1 | 0.3
COc1ccc(S(=O)(=O)N(C)C[C@@H]2Oc3ccc(NC(=O)CCCN(C)C)cc3C(=O)N([C@H](C)CO)C[C@@H]2C)cc1 | 0.1
C[C@@H]1CCCCO[C@H](CN(C)Cc2ccc(C(F)(F)F)cc2)[C@H](C)CN([C@@H](C)CO)C(=O)c2cc(NC(=O)CCCN(C)C)ccc2O1 | 0.4
CC(=O)N1Cc2ccccc2C[C@@]2(N=C(c3ccc(OCCCO)cc3)O[C@H]2c2ccccc2)C1=O | 0.3
C[C@H](CO)N1C[C@H](C)[C@H](CN(C)C(=O)CCC(F)(F)F)OCCCC[C@H](C)Oc2ccc(NC(=O)Nc3ccccc3)cc2C1=O | -0.7
C[C@@H]1CCCCO[C@@H](CN(C)S(=O)(=O)c2cn(C)cn2)[C@@H](C)CN([C@H](C)CO)C(=O)c2cc(NS(=O)(=O)c3cccs3)ccc2O1 | -0.1
CCCN(C)C[C@@H]1OCCCC[C@@H](C)Oc2ccc(NS(C)(=O)=O)cc2C(=O)N([C@H](C)CO)C[C@@H]1C | -0.3
C[C@H]1CN([C@@H](C)CO)C(=O)c2cccc(NC(=O)C3CCOCC3)c2O[C@@H]1CN(C)C(=O)Nc1ccc(F)cc1 | 1.2
Cc1noc(C)c1S(=O)(=O)Nc1ccc2c(c1)C(=O)N([C@H](C)CO)C[C@H](C)[C@H](CN(C)CC1CC1)OCCCC[C@H](C)O2 | 1.6
Cc1noc(C)c1NC(=O)Nc1ccc2c(c1)C(=O)N([C@@H](C)CO)C[C@@H](C)[C@@H](CN(C)C(=O)CCCN(C)C)OCCCC[C@H](C)O2 | -1.3
COc1ccc(NC(=O)Nc2ccc3c(c2)CC(=O)N([C@H](C)CO)C[C@H](C)[C@@H](CN(C)Cc2ccncc2)O3)cc1 | 0.0
C[C@@H]1CN([C@@H](C)CO)C(=O)c2cc(NS(=O)(=O)c3ccccc3)ccc2O[C@@H]1CN(C)S(C)(=O)=O | -0.2
C[C@@H]1CN([C@H](C)CO)C(=O)c2cc(NC(=O)Nc3ccc(C(F)(F)F)cc3)ccc2O[C@H]1CN(C)S(C)(=O)=O | 0.3
C[C@@H]1CN([C@@H](C)CO)C(=O)Cc2cc(NS(=O)(=O)c3cccs3)ccc2O[C@@H]1CN(C)C | 0.2
C[C@@H]1CN([C@@H](C)CO)C(=O)Cc2cc(NS(C)(=O)=O)ccc2O[C@@H]1CN(C)C(=O)Nc1ccccc1 | 0.7
CC(C)NC(=O)Nc1ccc2c(c1)C(=O)N([C@H](C)CO)C[C@@H](C)[C@H](CN(C)Cc1ccc(C(=O)O)cc1)OCCCC[C@H](C)O2 | 0.3
COc1ccc(S(=O)(=O)Nc2ccc3c(c2)CC(=O)N([C@@H](C)CO)C[C@H](C)[C@@H](CN(C)C(=O)Nc2ccc(C(F)(F)F)cc2)O3)cc1 | -0.6
C[C@H]1CN([C@@H](C)CO)C(=O)c2cccc(NC(=O)C3CC3)c2O[C@H]1CN(C)S(=O)(=O)c1ccc(Cl)cc1 | -1.2
Continued.
SMILES | A1 apoptosis 2
C[C@@H]1CN([C@@H](C)CO)C(=O)c2cccc(NC(=O)Nc3ccc(F)cc3)c2O[C@H]1CN(C)C(=O)NC1CCCCC1 | 1.3
C[C@@H]1CN([C@H](C)CO)C(=O)c2cc(NS(=O)(=O)c3cn(C)cn3)ccc2O[C@H]1CN(C)Cc1ccc(C(=O)Nc2ccccc2N)cc1 | 0.0
Cc1noc(C)c1NC(=O)N(C)C[C@@H]1Oc2ccc(NC(=O)Nc3ccccc3)cc2CC(=O)N([C@@H](C)CO)C[C@@H]1C | 0.9
Cc1ccc(S(=O)(=O)N(C)C[C@@H]2OCCCC[C@@H](C)Oc3ccc(NC(=O)Nc4ccc(F)cc4)cc3C(=O)N([C@@H](C)CO)C[C@H]2C)cc1 | 2.7
C=C(C)[C@@H]1CC=C(/C=N/NC(=O)CCCCCCC(=O)Nc2ccccc2O)CC1 | 1.3
C[C@@H]1CN([C@@H](C)CO)C(=O)c2cccc(NC(=O)CCCCCC(=O)Nc3ccccc3N)c2O[C@H]1CN(C)C(=O)Nc1ccccc1 | 0.3
COc1ccc(CN(C)C[C@H]2Oc3c(NC(=O)c4ccncc4)cccc3C(=O)N([C@H](C)CO)C[C@@H]2C)cc1 | 0.2
CC(C)NC(=O)Nc1ccc2c(c1)C(=O)N([C@@H](C)CO)C[C@@H](C)[C@@H](CN(C)C)O2 | 0.2
C#Cc1ccc([C@H]2C=C(C(=O)N3CCOCC3)O[C@@H](OCc3ccc(CO)cc3)C2)cc1 | 0.1
Cc1ccc(S(=O)(=O)N(C)C[C@H]2Oc3ccc(N(C)C)cc3CC(=O)N([C@@H](C)CO)C[C@@H]2C)cc1 | 0.0
C[C@H]1CN([C@@H](C)CO)C(=O)c2cccc(NC(=O)C3CCOCC3)c2O[C@H]1CN(C)S(C)(=O)=O | 0.9
Cc1ccc(S(=O)(=O)Nc2cccc3c2O[C@@H](CN(C)C)[C@@H](C)CN([C@H](C)CO)C3=O)cc1 | -0.8
Cc1ccc(S(=O)(=O)Nc2ccc3c(c2)C(=O)N([C@H](C)CO)C[C@@H](C)[C@H](CN(C)C(=O)Nc2ccc4c(c2)OCO4)OCCCC[C@H](C)O3)cc1 | 1.5
Cc1ccc(S(=O)(=O)Nc2cccc3c2O[C@@H](CN(C)C(=O)NC2CCCCC2)[C@H](C)CN([C@@H](C)CO)C3=O)cc1 | -0.9
C[C@@H]1CN([C@@H](C)CO)C(=O)c2cccc(NS(=O)(=O)c3ccc(F)cc3)c2O[C@H]1CN(C)Cc1ccc(Cl)c(Cl)c1 | -1.0
C[C@H](CO)N1C[C@H](C)[C@H](CN(C)C(=O)NC2CCCCC2)Oc2ccc(NC(=O)NC3CCCCC3)cc2CC1=O | -0.5
C[C@@H]1CN([C@@H](C)CO)C(=O)c2cccc(NC(=O)Nc3ccc(C(F)(F)F)cc3)c2O[C@H]1CN(C)C(=O)Nc1ccc(C(F)(F)F)cc1 | -2.0
CC(C)NC(=O)Nc1cccc2c1O[C@@H](CN(C)CC1CCCCC1)[C@@H](C)CN([C@@H](C)CO)C2=O | -1.0
C[C@H](CO)N1C[C@H](C)[C@H](CN(C)Cc2ccc(C(=O)O)cc2)Oc2ccc(NS(=O)(=O)c3ccc(F)cc3)cc2CC1=O | 1.2
Cc1cc(C(=O)Nc2cccc3c2O[C@@H](CN(C)CC2CCCCC2)[C@H](C)CN([C@H](C)CO)C3=O)n(C)n1 | -1.0
C[C@@H]1CN([C@H](C)CO)C(=O)c2cc(NS(=O)(=O)c3ccc(Cl)cc3)ccc2O[C@H]1CN(C)Cc1ccc(C(=O)O)cc1 | 0.6
C[C@H](CO)N1C[C@H](C)[C@H](CN(C)Cc2ccc3c(c2)OCO3)OCCCC[C@H](C)Oc2ccc(NC(=O)Nc3ccccc3)cc2C1=O | 0.6
CC(C)NC(=O)Nc1ccc2c(c1)C(=O)N([C@H](C)CO)C[C@H](C)[C@H](CN(C)C(=O)Cc1ccccc1)OCCCC[C@H](C)O2 | 0.4
Cc1noc(C)c1NC(=O)Nc1ccc2c(c1)C(=O)N([C@H](C)CO)C[C@H](C)[C@@H](CN(C)S(=O)(=O)c1ccc(F)cc1)OCCCC[C@@H](C)O2 | 1.4
C[C@H]1CN([C@@H](C)CO)C(=O)c2cc(NC(=O)Nc3ccc4c(c3)OCO4)ccc2O[C@H]1CN(C)Cc1ccc(-c2ccccc2)cc1 | -1.0

Part of the list above in order of SMILES length, largest number first.
SMILES | A1 apoptosis 2
C[C@@H]1CN([C@@H](C)CO)C(=O)c2cccc(NC(=O)Nc3ccc(C(F)(F)F)cc3)c2O[C@H]1CN(C)C(=O)Nc1ccc(C(F)(F)F)cc1 | -2.0
C[C@@H]1CN([C@H](C)CO)C(=O)c2cc(NS(=O)(=O)c3cn(C)cn3)ccc2O[C@H]1CN(C)Cc1ccc(C(=O)Nc2ccccc2N)cc1 | 0.0
C[C@@H]1CN([C@H](C)CO)C(=O)c2cccc(NS(=O)(=O)c3ccc(Cl)cc3)c2O[C@H]1CN(C)S(=O)(=O)c1ccc(F)cc1 | 0.1
C[C@@H]1CN([C@H](C)CO)C(=O)c2cc(NS(=O)(=O)c3ccc(Cl)cc3)ccc2O[C@H]1CN(C)Cc1ccc(C(=O)O)cc1 | 0.6
Cc1ccc(S(=O)(=O)Nc2cccc3c2O[C@@H](CN(C)C(=O)NC2CCCCC2)[C@H](C)CN([C@@H](C)CO)C3=O)cc1 | -0.9
C[C@H](CO)N1C[C@H](C)[C@H](CN(C)C(=O)NC2CCCCC2)Oc2ccc(NC(=O)NC3CCCCC3)cc2CC1=O | -0.5
C[C@H]1CN([C@@H](C)CO)C(=O)c2cccc(NC(=O)C3CCOCC3)c2O[C@H]1CN(C)S(C)(=O)=O | 0.9
C[C@@H]1CN([C@@H](C)CO)C(=O)Cc2cc(NS(=O)(=O)c3cccs3)ccc2O[C@@H]1CN(C)C | 0.2
CC(C)NC(=O)Nc1ccc2c(c1)C(=O)N([C@@H](C)CO)C[C@@H](C)[C@@H](CN(C)C)O2 | 0.2
C#Cc1ccc([C@H]2C=C(C(=O)N3CCOCC3)O[C@@H](OCc3ccc(CO)cc3)C2)cc1 | 0.1

The results go on.
SMILES | A1 apoptosis 2
C[C@H](CO)N1C[C@H](C)[C@H](CN(C)S(=O)(=O)c2ccc(Cl)cc2)Oc2c(NS(=O)(=O)c3cccs3)cccc2C1=O | -0.6
COc1ccc(C#Cc2ccc3c(c2)[C@]2(C(=O)N3)[C@H](C(=O)N3CCc4cc(OC)c(OC)cc4C3)[C@H]3C(=O)O[C@H](c4ccccc4)[C@H](c4ccccc4)N3[C@@H]2c2ccccc2OCCO)cc1 | -0.1
C[C@@H]1CCCCO[C@H](CN(C)C(=O)c2ccncc2)[C@H](C)CN([C@H](C)CO)C(=O)c2cc(NC(=O)CCC(F)(F)F)ccc2O1 | -0.2
CCO[C@H]1OC(C(=O)O)=C[C@@H](c2csc3ccccc23)[C@@H]1CCCO | 0.9
C[C@@H]1CN([C@@H](C)CO)C(=O)Cc2cc(N(C)C)ccc2O[C@@H]1CN(C)Cc1ccncc1 | 0.0
COc1ccc(S(=O)(=O)Nc2ccc3c(c2)CC(=O)N([C@@H](C)CO)C[C@H](C)[C@H](CN(C)C)O3)cc1 | 1.1
C[C@@H]1CCCCO[C@@H](CN(C)S(=O)(=O)c2cn(C)cn2)[C@@H](C)CN([C@H](C)CO)C(=O)c2cc(NC(=O)Nc3cccc4ccccc34)ccc2O1 | -0.1
C[C@H](CO)N1C[C@H](C)[C@H](CN(C)S(C)(=O)=O)Oc2ccc(NC(=O)Nc3ccc4c(c3)OCO4)cc2CC1=O | 0.5
C[C@@H]1CCCCO[C@@H](CN(C)C(=O)Nc2ccc(C(F)(F)F)cc2)[C@H](C)CN([C@@H](C)CO)C(=O)c2cc(NC(=O)Nc3ccc(C(F)(F)F)cc3)ccc2O1 | -0.3
C[C@H](CO)N1C[C@H](C)[C@H](CN(C)C(=O)Nc2ccc3c(c2)OCO3)Oc2ncc(C#CCN(C)C)cc2C1=O | 1.1
C[C@@H]1CN([C@H](C)CO)C(=O)c2cc(NC(=O)Nc3ccc(F)cc3)ccc2O[C@H]1CN(C)S(=O)(=O)c1cn(C)cn1 | -1.0
C[C@H]1CCCCO[C@H](CN(C)Cc2ccc3c(c2)OCO3)[C@@H](C)CN([C@@H](C)CO)C(=O)c2cc(NC(=O)Nc3ccc(F)cc3)ccc2O1 | 0.0
C[C@@H]1CN([C@H](C)CO)C(=O)Cc2cc(NS(=O)(=O)c3ccccc3)ccc2O[C@@H]1CN(C)Cc1ccc2c(c1)OCO2 | 1.0
CC(C)NC(=O)N(C)C[C@H]1OCCCC[C@@H](C)Oc2ccc(NC(=O)C3CCCCC3)cc2C(=O)N([C@@H](C)CO)C[C@H]1C | -0.3
C[C@H]1CN([C@@H](C)CO)C(=O)c2cc(NC(=O)Nc3cccc4ccccc34)ccc2O[C@@H]1CN(C)Cc1ccc(-c2ccccc2)cc1 | 0.9
C[C@H](CO)N1C[C@H](C)[C@H](CN(C)Cc2ccc3c(c2)OCO3)Oc2ncc(-c3cccc(C(F)(F)F)c3)cc2C1=O | 0.6
C[C@@H]1CN([C@H](C)CO)C(=O)c2cc(NC(=O)C3CCCCC3)ccc2O[C@H]1CN(C)C(=O)Nc1ccc(F)cc1 | 0.0
COc1ccc(S(=O)(=O)Nc2ccc3c(c2)C(=O)N([C@H](C)CO)C[C@@H](C)[C@H](CN(C)C(=O)c2ccccc2)OCCCC[C@@H](C)O3)cc1 | 2.8
